# gsp agonist: qHTS for Agonist of gsp, the Etiologic Mutation Responsible for Fibrous Dysplasia/McCune-Albright Syndrome: qHTS. gsp mutant cells, cAMP HTRF, 30 min; control for the full effect not named in the record. Potency, µM (titrated, usually from 76.9 µM), without a hit: at the highest dose activation (cAMP increase), most hits filed as activators. actives 0.13% (n = 340,000). AID 624287, 2012; active = well fitted activation curve with a large enough effect; inconclusive = small, poorly fitted or top-dose-only effect, or another doubt; inactive = no such curve, though single readings can be large or run the other way; cell line not stated here;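 further: phosphodiesterase inhibitor Ro 20-1724 added with compounds to block cAMP breakdown; potency means the concentration at half of the fitted maximal effect; nearly all actives have a fitted effect of over 60% in size; about a fifth of the inactives were tested at one dose only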
#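 Cells in DMEM/10% FBS with G418 were pretreated with compounds in DMSO plus […] (300 uM stock) for 30 min at 37C. cAMP was measured by HTRF (cAMP-d2 plus anti-cAMP antibody-K) after 30 min at room temperature.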
# D2 ag: Beta-Arrestin HTS for Positive Allosteric Modulators of the Human D2 Dopamine Receptor: Agonists; D(2) dopamine receptor (Homo sapiens), P14416; DiscoveRx PathHunter D2 beta-arrestin, luminescence, 90 min; 100% = 57 uM dopamine signal; activation, % (concentration not given with the values); actives 0.084% (n = 360,000); AID 624465, 2012; in the data active = activation above about 40%; inconclusive = about 15% to 40%; inactive = below about 15%; further: compound concentration not given in the record; the text of the record calls up to 30% inactive
#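 Agonist mode: compounds alone added to overnight-plated D2 PathHunter cells for 90 min at 37 C, with 57 uM final dopamine (EC100) defining full response. Beta-arrestin recruitment detected by chemiluminescent reagent, read after 1 h at ambient temperature.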
# D2 potentiator: Beta-Arrestin HTS for Positive Allosteric Modulators of the Human D2 Dopamine Receptor: Potentiators; DiscoveRx D2 beta-arrestin cells, luminescence, 90 min; 100% = 57 uM dopamine signal; potentiation, % (concentration not given with the values); actives 0.23% (n = 360,000); active = potentiation of 50% or more; inconclusive = 30% to 50%; inactive = 30% or less;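 further: compound concentration not given in the record; tested on top of an EC20 dose of dopamine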
#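 PathHunter beta-arrestin assay in DiscoveRx D2 cells. Compounds were added with an EC20 of dopamine (50 nM final) for 90 min at 37 deg C. Luminescence was read 1 h after detection reagent, with 57 uM dopamine as the EC100 control.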
# gsp antag: qHTS for Antagonists of gsp, the Etiologic Mutation Responsible for Fibrous Dysplasia/McCune-Albright Syndrome: qHTS | gsp-mutant cells, cAMP HTRF, 30 min; control for the full effect not named in the record | Potency, µM (titrated, usually from 76.9 µM), without a hit: at the highest dose activity change, negative = inhibition, most hits filed as inhibitors | actives 0.4% (n = 340,000); active = falling curve of any shape with a large fitted effect; inconclusive = falling curve, mostly with a smaller effect; inactive = flat or rising curve; cell line not stated here;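 further: intracellular cAMP measured with PDE inhibitor Ro 20-1724 present during compound exposure; potency means the concentration at half of the fitted maximal effect; on the % scale 0 is the no-effect control and ±100 the full control effect; nearly all actives have a fitted effect of over 65% in size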
#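 HTRF cAMP read-out (cAMP-d2 plus anti-cAMP antibody-K in lysis buffer, 30 min RT). Before lysis, cells are exposed to compounds with […] for 30 min at 37C in DPBS containing Ca/Mg, BSA and Tween 20.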
# Six1-Eya2 inh: qHTS Assay for Inhibitors of the Six1/Eya2 Interaction; AlphaScreen GST-Six1/His-Eya2 binding, biochemical; active compounds read low; control for the full effect not named in the record; Homeobox protein SIX1 (Homo sapiens) + Protein phosphatase EYA2 (Homo sapiens), …; AID 651725, 2012; activity change, % (test concentration not listed); actives 0.56% (n = 360,000); in the data active = activity change below about -65%; inconclusive = about -30% to -65%; inactive = above about -30%; further: on the % scale 0 is the no-effect control and ±100 the full control effect
# Target sequence (O00167 whole entry, looked up): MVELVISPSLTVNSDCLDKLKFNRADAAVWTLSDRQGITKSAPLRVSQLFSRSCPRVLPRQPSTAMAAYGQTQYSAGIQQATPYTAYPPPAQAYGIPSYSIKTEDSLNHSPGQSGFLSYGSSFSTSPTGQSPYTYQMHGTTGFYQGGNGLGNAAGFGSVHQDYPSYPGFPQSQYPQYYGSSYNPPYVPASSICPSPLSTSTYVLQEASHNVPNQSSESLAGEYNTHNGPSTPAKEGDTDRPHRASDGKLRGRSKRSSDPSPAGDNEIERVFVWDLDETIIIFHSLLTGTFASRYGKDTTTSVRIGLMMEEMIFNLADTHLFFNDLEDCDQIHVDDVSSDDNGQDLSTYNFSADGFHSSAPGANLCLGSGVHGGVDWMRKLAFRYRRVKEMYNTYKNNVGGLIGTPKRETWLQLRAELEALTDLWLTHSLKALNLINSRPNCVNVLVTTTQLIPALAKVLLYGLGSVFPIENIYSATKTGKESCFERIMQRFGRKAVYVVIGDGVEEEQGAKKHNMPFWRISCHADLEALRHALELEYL
# Target sequence (Q15475 whole entry, looked up): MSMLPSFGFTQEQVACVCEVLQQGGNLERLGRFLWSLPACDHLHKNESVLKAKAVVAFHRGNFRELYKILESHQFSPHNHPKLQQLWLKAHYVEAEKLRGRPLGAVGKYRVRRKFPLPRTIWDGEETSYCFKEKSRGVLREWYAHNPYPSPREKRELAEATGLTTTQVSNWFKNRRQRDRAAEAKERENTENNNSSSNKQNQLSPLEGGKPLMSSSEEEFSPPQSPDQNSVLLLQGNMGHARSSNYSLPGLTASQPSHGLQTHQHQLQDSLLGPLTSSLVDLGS
#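 Compounds are tested against tagged Six1 and Eya2 proteins bridged by glutathione donor and nickel acceptor beads; after a one-hour incubation at 37 °C without light, AlphaScreen emission is recorded.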
# CtBP-E1A blk: qHTS Assay for Inhibitors of the CtBP/E1A Interaction; AlphaScreen GST-E1A/His-CtBP binding, 1536-well; active compounds read low; control for the full effect not named in the record; activity change, % (test concentration not listed); actives 0.49% (n = 340,000); AID 651724, 2012; in the data active means activity change below about -65%; inconclusive means about -30% to -65%; inactive means above about -30%; further: on the % scale 0 is the no-effect control and ±100 the full control effect
#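 Steps: dispense buffer (Tris pH 8.0, NaCl 300 mM, TCEP 1 mM, BSA, Tween 20); add 5X protein mix (GST-E1A, His-CtBP, 125 nM each); pin 23 nL compound; 2 h at 37 °C, dark; add 5X beads (50 ug/mL); 1 h; read.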
# * marks the source's active call; other numbers are inactive results; u = inconclusive; x = no result given; [ ] = remark or other dose.
smiles	gsp agonist	CtBP-E1A blk	gsp antag	Six1-Eya2 inh	D2 ag	D2 potentiator
COc1cc(NS(=O)(=O)c2ccc(NC(=S)Nc3ccccc3)cc2)nc(OC)n1	-14%	6	-6%	6	-2.6	15
Cc1ccccc1C(=O)c1ccccc1C(=O)c1ccccc1	22%[15.4 µM]	-3	-19%	-4	-2.7	-5
CCn1c(SCC(=O)Nc2oc(-c3ccccc3)c(-c3ccccc3)c2C#N)nnc1-c1cc(OC)cc(OC)c1	25%	-5	-12%	-24	1.3	5
Cc1ccccc1N(C(=O)c1snc(C(N)=O)c1N)C(C(=O)NCC1CCCO1)c1ccc(N(C)C)cc1 (configuration not stated)	-22%[15.4 µM]	1	-16%	-4	5.0	-2
COc1ccc(C#Cc2c(-c3ccsc3)oc3ccc(-c4cc(OC)c(OC)c(OC)c4)cc23)cc1	-26%	x	6%	3	-1.0	-6
CCCCCCSc1ccc(-c2nc3ccc(Cl)cn3c2NC2CCCCC2)cc1	u	4	2%	0	0.7	-2
O=C(Nc1ccccc1)Nc1cccc(Cl)c1	-4%	7	32µM*	5	0.0	0
Cc1cc(C)cc(NC(=S)Nc2ccccn2)c1	7%	2	-13%	6	-4.2	-34
O=C(NC1CCCC1)C(c1c(F)cccc1Cl)N(C(=O)c1csnn1)C1CC1 (configuration not stated)	-1%	4	9%	8	0.2	-1
Cc1ccc(C(=O)Nc2cccc3ncccc23)cc1[N+](=O)[O-]	-15%	8	3%	-5	1.0	-18
CCNC(=O)C1(C)CCN(C(=O)c2ccc(C(=O)OC)cc2)C1 (configuration not stated)	x	3	x	-1	5.3	-4
O=C(Nc1ccccc1F)n1ncc2cc(Cl)ccc21	u	-21	4%	-11	6.1	-6
COc1ccc(OC)c(N(CCN2C(=O)c3ccccc3C2=O)C(=O)CCl)c1	-11%	2	x	8	-2.3	-2
COc1ccc(-n2nnc3c(=O)n(C/C=C/c4ccccc4)cnc32)cc1	-1%	-5	-12%	-9	-1.8	-16
COC(=O)c1ccc(NC(=O)c2ccc3c(c2)C(=O)N(C)C3=O)cc1	-4%[15.4 µM]	8	11%	-1	-1.5	3
CC(O)c1c(-c2ccccc2)nn(C)c1Cl (configuration not stated)	5%[15.4 µM]	4	5%	1	-0.2	-7
O=C1C2CC3N1CCC31c3ccccc3-n3c1c2ccc3=O (configuration not stated)	0%	5	8%	0	-0.6	-8
Cn1nccc1C(=O)N1CCc2ccccc21	21%	3	-2%	-2	-4.7	-4
COc1ccc(C(O)c2nc(/C=C/c3ccc(C(F)(F)F)cc3)cs2)cc1 (configuration not stated)	x	-13	x	8	6.0	1
CCC(C(=O)NC1CCCC1)N(C(=O)Cn1nnc(-c2ccc(C)o2)n1)C(C)(C)C (configuration not stated)	2%	4	-4%	-2	-4.4	-6
COc1ccc(-c2cc(C(=O)NNC(=S)NC(=O)c3c(-c4ccccc4)noc3C)[nH]n2)cc1	19%	-11	-18%	-14	9.3	1
Cc1onc(-c2c(Cl)cccc2Cl)c1C(=O)NCc1ccco1	-25%	-2	-15%	-14	-2.9	-14
COc1ccc(CNC(=O)CSc2nnc3c(n2)[nH]c2ccc(C)cc23)cc1	-3%[15.4 µM]	-6	1%	-2	-1.9	-5
COc1ccc(S(=O)(=O)N2CCC(C(=O)NCCC(=O)Nc3cccc(Cl)c3)CC2)cc1	29%	-4	-20%	-1	-7.6	-7
CC(C(=O)NC(=O)NC1CCCCC1)N1CCN(c2ccc(O)cc2)CC1 (configuration not stated)	8%	-24	7%	-5	12	0
CC(C)(C)c1oc(C(=O)O)cc1CN1CCOCC1	7%[15.4 µM]	4	11%	7	2.5	0
CCOC(=O)C1(C)CCCN(C(=O)c2cccnc2SC)C1 (configuration not stated)	x	2	x	8	-5.7	-9
C[C@@H](C(=O)NCC1CCCO1)N1C(=O)N2CCc3c([nH]c4ccccc34)[C@@]2(C)C1=O (some centres not stated)	x	5	-2%	0	5.8	-2
COc1ccc(N(CC(=O)Nc2cccc(C(C)=O)c2)S(C)(=O)=O)cc1OC	15%	1	17%	18	-0.8	-16
O=[N+]([O-])c1ccccc1/C=C/C=N/N1CCCCC1	-3%[15.4 µM]	u	5%	-68*	-6.7	-13
COc1ccc(C(=O)/C=C/Nc2cc(C)on2)cc1	-47%[inhibitor]	9	-2%	-3	-3.0	5
COc1cccc(C2=NOC(C(=O)Nc3c(C)n(C)n(-c4ccccc4)c3=O)C2)c1 (configuration not stated)	16%	0	3%	0	-2.3	-12
O=C(N1CCOCC1)C1(c2ccc(Cl)cc2)CCCC1	19%	4	11%	3	-2.2	-4
O=C1CSC(c2cccnc2)N1CC1CC1 (configuration not stated)	6%	4	8%	2	1.2	0
COc1ccc(N(C(=O)Cn2cnc3ccccc32)C(C(=O)NC2CCCCC2)c2ccccc2)cc1 (configuration not stated)	-43%[inhibitor]	2	-9%	-8	0.0	-18
NC(=O)c1cccc2c(=O)oc3ccccc3c12	7%	-1	11%	-2	-3.9	-19
CC1CCN(S(=O)(=O)c2ccc(NC(=O)C3CCN(C(=O)c4ccco4)CC3)cc2)CC1	-23%	3	-28%	0	0.8	0
O=C(CCC(=O)N1CCOc2ccccc21)N1CCN(c2ccccc2)CC1	-27%	0	6%	-1	-2.6	-1
S=C(N/N=C/c1ccc(Br)cc1)N1CCCCC1	-30%[inhibitor]	-15	-6%	-17	4.8	-20
COc1cccc(NC(=S)N(CCc2ccc(OC)c(OC)c2)Cc2ccccn2)c1	u	-3	-5%	-7	3.9	1
CCc1ccc(OC(=O)c2cccnc2)cc1	2%	x	6%	9	-6.1	-6
CC(C)(C)C1CCC2(CC1)NC(=S)N(c1ccccc1)N2 (configuration not stated)	0%	2	-2%	-4	-8.3	-29
Cc1cnc(C)c(N2CCN(Cc3nc(-c4cccc(F)c4F)oc3C)CC2)n1	-25%	x	-6%	-10	-2.4	-20
CCCCCCCN1CCC(=O)N([C@H](CO)CC(C)C)CC1	x	-8	11%	-13	-1.1	-81
Cn1cc(S(=O)(=O)N2CCN(c3cccc(C(F)(F)F)c3)CC2)c(=O)n(C)c1=O	-53%[inhibitor]	-2	4%	3	-1.9	-8
CN1CCN(C(=O)/C=C/c2ccc([N+](=O)[O-])o2)CC1	27%	x	-2%	-3	u	6
COC(=O)c1ccn(CC(=O)NC2CCCCC2)n1	8%	x	13%	0	-1.6	-1
CC1(C(=O)NS(=O)(=O)C2CC2)CCN(C(=O)c2ccccc2C(F)(F)F)C1 (configuration not stated)	x	-15	x	6	4.0	-2
O=C(/C=C/Nc1ccc(Cc2ccc(N/C=C/C(=O)C(F)(F)F)cc2)cc1)C(F)(F)F	-23%	2	16%	2	0.6	18
Cc1ccc(CN2CCC(C)(Oc3cccc(Cl)c3)C2)cc1 (configuration not stated)	x	-6	x	-7	4.9	-30

# Records listed so far printed as active in Six1-Eya2 inh:
smiles	gsp agonist	CtBP-E1A blk	gsp antag	Six1-Eya2 inh	D2 ag	D2 potentiator
O=[N+]([O-])c1ccccc1/C=C/C=N/N1CCCCC1	-3%[15.4 µM]	u	5%	-68*	-6.7	-13

# An excerpt of these results, with the structure last:
gsp agonist	CtBP-E1A blk	gsp antag	Six1-Eya2 inh	D2 ag	D2 potentiator	structure
8%	x	13%	0	-1.6	-1	COC(=O)c1ccn(CC(=O)NC2CCCCC2)n1
15%	1	17%	18	-0.8	-16	COc1ccc(N(CC(=O)Nc2cccc(C(C)=O)c2)S(C)(=O)=O)cc1OC
-25%	x	-6%	-10	-2.4	-20	Cc1cnc(C)c(N2CCN(Cc3nc(-c4cccc(F)c4F)oc3C)CC2)n1

# Continuation:
smiles	gsp agonist	CtBP-E1A blk	gsp antag	Six1-Eya2 inh	D2 ag	D2 potentiator
CCC(CC)n1[nH]c(=O)c2c(C)cc(C)nc21	0%	2	7%	1	-0.5	-9
O=C(CCC1CCCN(C(=O)c2ccsc2)C1)N1CCN(c2ccccn2)CC1 (configuration not stated)	-26%	8	-8%	2	0.3	-5
Cc1cc(C)cc(N2CC(C(=O)OCC(=O)Nc3cc(C)on3)CC2=O)c1 (configuration not stated)	-33%[inhibitor]	5	6%	2	-4.2	-5
Cc1cc(N2CCOCC2)nc2ccc(NC(=O)CCC(=O)N3CCN(c4cccc(C(F)(F)F)c4)CC3)cc12	3%	-3	40µM*	1	8.4	2
CCOCc1c(C(=O)OCC(=O)NCc2ccc(F)cc2)oc2ccccc12	-3%	-1	7%	0	0.9	-3
CC1CC(C)CN(CCCNC(=O)Cn2cccc2C(=O)c2ccccc2)C1 (configuration not stated)	1%	x	5%	0	-1.0	-19
CCCCn1c(N)c(-c2nc3ccccc3o2)c2c([N+](=O)[O-])nn(CC)c(=O)c21	0%	-6	0%	-11	-3.1	-14
CC(C)NC(=O)c1ccc2c(c1)N(CC(=O)NC1CCCCC1)C(=O)C(C)(C)O2	-1%[15.4 µM]	-11	15%	1	-2.1	-11
O=C1CCCN1C(=O)COc1cc(F)ccc1[N+](=O)[O-]	11%	3	14%	4	-0.2	0
Cc1nn(C)cc1/C=N\NC(=O)c1csc2c1CCCC2	3%[15.4 µM]	-1	-12%	-3	-8.3	-18
CC1=C(C(=O)Nc2cc(C(=O)N3CCN(c4cccc(C)c4)C(C)C3)ccc2C)SCCO1 (configuration not stated)	4%	-21	-39%	-18	-3.9	-5
CN(C)C(CNC(=O)C1CCN(S(=O)(=O)c2cc(Cl)ccc2Cl)CC1)Cc1ccccc1 (configuration not stated)	u	x	9%	4	-5.9	-15
CCN(CC)S(=O)(=O)c1ccc2c(c1)nc(CCC(=O)OCc1c(C)noc1C)n2C	u	-1	37%[activator]	-1	-0.8	-43
CCCC#Cc1ccc2c(c1)COc1c3ccccc3nn1-2	x	3	-18%	4	-1.5	-4
Cc1ccccc1CC1(C)C(=O)Nc2ccc(S(=O)(=O)NC3CCCCC3)cc21 (configuration not stated)	x	0	x	3	7.0	-1
CCOC(=O)C1(Cc2ccccc2)CCCN(Cc2cccc(C(C)=O)c2)C1 (configuration not stated)	14%	14	-5%	4	-1.7	-11
Cc1ccc(/C(N)=N/OC(=O)N2c3ccccc3Sc3ccccc32)cc1	-3%	-25	-31%	u	u	101*
